Mtb bLac sens – beta-lactam sensitization of Mtb H37Rv, H37Rv; M. tuberculosis H37Rv growth with meropenem, percent inhibition; hits of this screen are not shown here; inhibition, % at 25 µM; 330,000 tested, 0.27% active; AID 434955, 2010;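 active = about 74% or more and at least 40 points above the plate without the antibiotic, then above 30% in a dose series; inconclusive = first-round hits that could not be retested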;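 also: growth measured after seven days incubation then overnight dye step; 0% = bacteria only wells and 100% = bacteria with antibiotic; twin plates without the antibiotic show which effects depend on it; some results filed as inactive read as strong as hits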
Mtb growth – M. tuberculosis H37Rv growth inhibitors, H37Rv strain (AID 1626). inhibition, % at 10 µM, or IC50 in µM where a hit was titrated. M. tuberculosis H37Rv growth inhibition; higher % means a stronger effect. 220,000 tested, 0.95% active;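 active = confirmed in a dose series; inconclusive = inhibition above 80% but not taken into the dose series; inactive = below 80% or under 30% at every dose of the series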;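 also: bacteria incubated seven days before Alamar blue readout; 0% = bacteria only wells and 100% = bacteria with antibiotic wells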
RecA intein inh – Mtb RecA intein splicing inhibitors, primary screen, biochemical, fluorescence, HTS; inhibition, %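 (about 9 µM by stock and volumes)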; AID 2221, 2009; Protein RecA (Mycobacterium tuberculosis (strain ATCC 25618 / H37Rv)), P9WHJ3; cell-free RecA intein splicing; 290,000 tested, 0.75% active; in the data active = inhibition above about 30%; inconclusive = no clear call, values can overlap the other calls;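 also: 0% = vehicle wells and 100% = reference inhibitor control wells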
Target sequence (P9WHJ3 whole entry, looked up): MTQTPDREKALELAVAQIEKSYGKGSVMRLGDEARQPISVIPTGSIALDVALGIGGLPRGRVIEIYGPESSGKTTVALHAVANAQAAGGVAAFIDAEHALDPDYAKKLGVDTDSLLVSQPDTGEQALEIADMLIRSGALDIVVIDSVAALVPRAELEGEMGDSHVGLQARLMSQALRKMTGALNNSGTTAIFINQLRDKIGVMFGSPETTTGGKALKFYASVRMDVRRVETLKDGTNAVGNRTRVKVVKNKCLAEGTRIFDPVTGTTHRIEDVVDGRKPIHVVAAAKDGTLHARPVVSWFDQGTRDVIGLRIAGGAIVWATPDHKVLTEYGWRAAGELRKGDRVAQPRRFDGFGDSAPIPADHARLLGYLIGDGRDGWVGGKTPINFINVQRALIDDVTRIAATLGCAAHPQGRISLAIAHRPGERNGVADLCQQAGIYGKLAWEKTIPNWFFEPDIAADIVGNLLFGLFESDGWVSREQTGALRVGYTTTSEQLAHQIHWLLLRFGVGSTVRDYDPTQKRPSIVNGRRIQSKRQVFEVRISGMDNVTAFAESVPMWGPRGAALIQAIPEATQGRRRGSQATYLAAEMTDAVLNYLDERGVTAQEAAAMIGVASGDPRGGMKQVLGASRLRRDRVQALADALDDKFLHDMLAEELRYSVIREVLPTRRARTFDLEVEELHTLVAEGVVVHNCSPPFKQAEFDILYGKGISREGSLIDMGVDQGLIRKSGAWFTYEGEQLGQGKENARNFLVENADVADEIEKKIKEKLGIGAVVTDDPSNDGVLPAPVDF
YopH PTP inh – YopH tyrosine phosphatase inhibitors, primary screen, biochemical, fluorescence Ex485/Em525; YopH tyrosine phosphatase [Yersinia enterocolitica]; inhibition, %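 (about 10 µM by stock and volumes)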; 140,000 tested, 0.16% active;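 active = inhibition of 50% or more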;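 also: controls were vehicle for no effect and minimum signal wells for full effect; inactives centre near -20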
Arbovirus anti – antivirals against arbovirus infection, primary screen, cell-based, full library, 10K replicate subset; AID 1251, 2008; arbovirus infection cell-based antiviral screen; inhibition, % at 10 µM; 200,000 tested, 0.37% active;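 active = inhibition from about 30%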;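 also: bluetongue infection of BSR cells; cell survival read as ATP light after 72 h; 0% = infected wells without compound and 100% = uninfected wells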
Arbovirus anti repeat – recorded beside Arbovirus anti, whose call it bears; inhibition, %; measured here: 10K subset replicate screen; many hits read low in the repeat;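 first of two repeat runs on a subset; 0% = infected and 100% = uninfected wells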
Starred values were filed as active, the others as inactive; ? = inconclusive; · = no result given; & = joins results of further samples.

SMILES | Mtb bLac sens | Mtb growth | RecA intein inh | YopH PTP inh | Arbovirus anti | others
C#CCOC(=O)Nc1cc(C)n(-c2ccccc2)n1 | -3 | -9% | · | · | ·
COc1cccc(N2CCN(C3OC(=O)c4ccccc43)CC2)c1 (stereo not given) | -14 | -5% | -1.1 | -46 | 7
Cc1cccc(NC(=O)C2CCCN(S(=O)(=O)c3ccc(-n4cnnn4)cc3)C2)c1 (stereo not given) | 1 | · | 5.8 | · | ·
O=C(NNS(=O)(=O)c1ccc(Cl)cc1)c1cc(-c2ccccc2)n[nH]1 | 1 | -7% | 6.8 | · | ·
COc1ccccc1Oc1ccc(NC(=O)c2ccc(Cl)cc2)cc1 | 8 | -10% | -0.5 | · | 1
COc1ccccc1N1CCN(/N=C/c2cc([N+](=O)[O-])ccc2Cl)CC1 | 2 | -18% | 8.5 | · | 12
O=C(O)/C(=C\c1ccc(Cl)cc1)c1ccc(F)cc1 | -7 | 3% | 1.0 | · | 6
CCOc1ccc(S(=O)(=O)Nc2nc3ccccc3nc2N2CCN(C)CC2)cc1 | -2 | -4% | -12 | -13 | 16
CC(=O)Nc1ccc(C(=O)CSc2ncn(-c3ccccc3)n2)cc1 | -4 | -7% | 0.3 | 2 | 1
COCCn1c(-c2ccc(OC)c(OC)c2)nc2ccccc21 | -7 | -6% | 0.1 | 32 | -5
CCOC(=O)c1ccc2c(c1)C1C=CCC1C(C(=O)OCC)N2 (stereo not given) | 14 | · | 4.5 | · | ·
CC(C)c1nnc(NC(=O)c2cnccn2)s1 | 2 | -7% | 0.2 | -40 | 6
Cc1oc(-c2ccccc2Cl)nc1CN1CCCCC1c1cccnc1 (stereo not given) | 2 | 4% | 0.0 | · | 0
CC(=O)Nc1nonc1NC(=O)CSC1=NCCS1 | -1 | · | -1.7 | -5 | 3
CCOC(=O)c1ccc(-n2c(C)nc3c(cnn3-c3ccccc3Cl)c2=O)cc1 | 8 | 2% | 0.3 | -14 | 8
Cc1ccccc1NC(=O)C1CCC(C)(C(=O)O)C1(C)C (stereo not given) | -2 | 3% | -3.0 | -13 | 8
Cc1c(O)ccc2c(CC(=O)N[C@@H](Cc3c[nH]c4ccccc34)C(=O)O)cc(=O)oc12 | -4 | · | 1.2 | · | ·
CN1CCN(c2nc3c(c(=O)[nH]c(=O)n3C)n2CCOc2ccccc2)CC1 | · | -3% | -3.9 | -22 | 4
Cc1c(NC(=O)CN2CCN(c3ccc(O)cc3)CC2)c(=O)n(-c2ccccc2)n1C | 1 | -5% | -4.3 | · | 11
COc1ccc(-n2c(SCC(=O)Nc3cc(C)on3)nc3c(c2=O)SCC3)cc1 | 4 | 9% | 3.9 | -40 | 12 | Arbovirus anti repeat=-7
COc1ccc(-c2ccnc3c(C(=O)O)cnn23)cc1 | 1 | 6% | 2.8 | · | 9
O=C(CNCc1ccc(F)cc1)Nc1ccccc1[N+](=O)[O-] | -4 | 4% | -1.1 | · | 1
Cc1cccc(NC(=O)CSc2ncnc3sc(C)c(C)c23)n1 | 0 | · | 0.2 | · | ·
O=C(Nc1ccccc1C(=O)OCc1nnc(-c2ccccc2)o1)c1ccco1 | 19 | 7% | -2.4 | -39 | -4
CCc1nnc(NS(=O)(=O)c2ccc(N=Cc3c(C)[nH]n(-c4ccc(C)cc4)c3=O)cc2)s1 | 63 | 5% | 5.5 | -14 | -9
Next section.
SMILES | Mtb bLac sens | Mtb growth | RecA intein inh | YopH PTP inh | Arbovirus anti | others
CCOCCCNc1ccc(-c2ccccc2)nn1 | -1 | 2% | 0.1 | 4 | -5
COc1ccc2cc(C(=O)C3CCCN(C(=O)/C=C/c4ccccn4)C3)ccc2c1 (stereo not given) | 12 | 1% | 2.2 | · | -3
Cc1ccc(C)c(N2CCN(S(=O)(=O)c3ccc4c(c3)NC(=O)CO4)CC2)c1 | 1 | · | 12 | · | ·
Cc1ccc(C)c(N2CCN(C(=O)CN3C(=S)NC(C)(C)CC3C)CC2)c1 (stereo not given) | -2 | 0% | · | · | 7
O=C(NC1C=CS(=O)(=O)C1)c1ccccc1 (stereo not given) | 6 | -8% | 7.6 | · | 14
CCOc1ncccc1C(=O)OCC(=O)N(CC)c1ccccc1 | -6 | -5% | 1.2 | · | -6
CC(=O)CSc1nc2c(c(=O)[nH]c(=O)n2C)n1Cc1cccc(Br)c1 | -3 | · | 1.0 | · | ·
O=C(O)c1ccc2c(c1)C(=O)/C(=C/c1ccccc1)C2=O | 11 | -6% | 3.8 | -1 | 5
Cc1ccc(CC2CC(=O)N(c3ccc4c(c3)OCCO4)C2=O)cc1 (stereo not given) | -2 | 2% | -1.8 | -27 | 0
CC(CCc1ccco1)NC(=O)CCc1nnc2ccc(NCc3ccc(Cl)cc3)nn12 (stereo not given) | -1 | · | -0.9 | · | ·
COC(=O)CSc1nc(C)cc(Oc2ccccc2)n1 | 0 | 9% | 1.2 | · | 8 | Arbovirus anti repeat=4
CC(=O)c1ccc(NC(=S)Nc2cccc(Cl)c2C)cc1 | 15 | -1% | -0.8 | · | -3
Cc1ccccc1C(=O)NC(=S)NCC(=O)c1ccccc1 | -10 | 0% | -7.6 | -29 | 3
Cc1ccc(C(=O)CNc2ccccc2C)cc1 | -2 | 2% | -0.1 | -21 | -18
CC(=O)Nc1cccc(-c2nc3ccccc3o2)c1 | 1 | · | -1.2 | · | ·
Cc1oc(-c2ccccc2)nc1CC(=O)O | -1 | 4% | 3.3 | -17 | 0
COc1ccc(/C=C2/SC(=S)N(CCC(=O)O)C2=O)cc1 | -10 | -11% | 3.6 | -33 | 8
O=C(Nc1nnc(S(=O)(=O)N2CCCCCC2)s1)c1ccc(Br)cc1 | 1 | · | -0.4 | · | ·
CCOc1ccc(NC(=O)CCn2cccc2)cc1 | 66 | >100µM* | -2.9 | 7 | -6
COc1ccc(C)c2sc(NC(=O)CCS(=O)(=O)c3ccccc3)nc12 | ? | · | 0.6 | · | ·
COc1ccc(S(=O)(=O)N2CCN(C(=O)c3sccc3-c3ccccc3)CC2)cc1 | -12 | · | -0.1 | · | ·
COc1ccccc1C(=O)NCCC(=O)N1CCN(c2cccc(C(F)(F)F)c2)CC1 | 0 | · | -2.0 | · | ·
COC(=O)CC1Nc2ccccc2SC1=O (stereo not given) | -3 | -10% | -1.0 | -18 | 5
Nc1ncc(-c2ccccc2)n1CC1CCCO1 (stereo not given) | -1 | 0% | 8.0 | -31 | -12
CCN(CC)S(=O)(=O)c1ccc(C(=O)OC2CCCCC2CN(C)C)cc1 (stereo not given) | 7 | -8% | -2.3 | -47 | -2

Of the compounds above, these have a Cl atom.
SMILES | Mtb bLac sens | Mtb growth | RecA intein inh | YopH PTP inh | Arbovirus anti | others
O=C(NNS(=O)(=O)c1ccc(Cl)cc1)c1cc(-c2ccccc2)n[nH]1 | 1 | -7% | 6.8 | · | ·
COc1ccccc1Oc1ccc(NC(=O)c2ccc(Cl)cc2)cc1 | 8 | -10% | -0.5 | · | 1
COc1ccccc1N1CCN(/N=C/c2cc([N+](=O)[O-])ccc2Cl)CC1 | 2 | -18% | 8.5 | · | 12
O=C(O)/C(=C\c1ccc(Cl)cc1)c1ccc(F)cc1 | -7 | 3% | 1.0 | · | 6
Cc1oc(-c2ccccc2Cl)nc1CN1CCCCC1c1cccnc1 (stereo not given) | 2 | 4% | 0.0 | · | 0
CCOC(=O)c1ccc(-n2c(C)nc3c(cnn3-c3ccccc3Cl)c2=O)cc1 | 8 | 2% | 0.3 | -14 | 8
CC(CCc1ccco1)NC(=O)CCc1nnc2ccc(NCc3ccc(Cl)cc3)nn12 (stereo not given) | -1 | · | -0.9 | · | ·
CC(=O)c1ccc(NC(=S)Nc2cccc(Cl)c2C)cc1 | 15 | -1% | -0.8 | · | -3

Continued.
SMILES | Mtb bLac sens | Mtb growth | RecA intein inh | YopH PTP inh | Arbovirus anti | others
CCC/C(=N/Nc1ccc(Cl)cc1)c1cnnc(-c2ccccc2)n1 | 4 | -10% | -2.9 | -22 | ·
CCOC(=O)C(NC(=O)Nc1ccccc1)(OCC)C(F)(F)F (stereo not given) | -5 | 6% | 0.0 | 53* | -4
COc1ccc(-c2c[n+]3c4n2CCCCC4=C(c2ccccc2)C3)cc1 | 99 | 4% | 11 | -42 | -22
CCNC(=O)CSc1nc(-c2ccc(F)cc2)cs1 | 3 | 4% | 1.3 | · | -4
CNc1ccccc1C(=O)OC | -2 | -10% | -0.1 | · | ·
CN(c1ccccc1)c1ccc(/C=C(\C#N)c2nnc3n2CCCCC3)cc1[N+](=O)[O-] | 51 | 8% | 25 | -30 | -27
CCCCCC(=O)N/N=C(\C)c1ccc(Cl)cc1 | 5 | 0% | 1.6 | -14 | -8
O=C(O)c1nsc(Cl)c1Cl | -4 | 0% | -1.0 | -26 | 3
O=C(NCc1ccccn1)C1CC(c2ccccc2O)=NO1 (stereo not given) | -5 | 3% | -8.8 | · | -7
CCN(CC)CCC(c1cc(OC)c(OC)c(OC)c1)c1c(OC)cc(OC)c2ccc(=O)oc12 (stereo not given) | -4 | -19% | 0.1 | · | ·
Clc1ccc(-c2noc(CSc3nnc(-c4ccncc4)n3-c3ccccc3)n2)cc1 | 1 | 10% | · | -16 | 4
Cn1cc[n+](C)c1COc1ccc(C=O)cc1 | -3 | · | -2.4 | · | ·
O=C(CC1C(=O)NCCN1Cc1c(F)cccc1Cl)NCc1ccccc1 (stereo not given) | -9 | -5% | -5.2 | · | 3
CCc1cc(C(=O)N/N=C/c2ccc(OC)cc2)c2ccccc2n1 | 2 | · | 1.2 | · | ·
NS(=O)(=O)c1ccc(NS(=O)(=O)c2ccc(NC(=S)Nc3ccccc3)cc2)cc1 | -10 | 7% | -0.2 | -22 | 5
CCCCN(CCCC)C(=O)c1ccccc1NC(=O)CN1C(=O)c2ccccc2C1=O | -8 | -6% | -2.5 | -13 | 12
CC(C)C(c1nnnn1Cc1ccco1)N1CCN(C2CCCC2)CC1 (stereo not given) | -11 | 7% | 1.1 | -37 | 5
O=C(O)c1cccc(Nc2nc(-c3ccc([N+](=O)[O-])cc3)nc3ccccc23)c1 | 11 | · | 3.9 | · | ·
O=S(=O)(c1cnc(Cl)c(Cl)c1)N1CCCc2ccccc21 | 10 | 0% | 17 | -10 | 6
CN=c1scc(C)n1/N=C/c1ccc(O)cc1 | 1 | 6% | -2.3 | -27 | -28
COc1ccc(Br)cc1S(=O)(=O)NCc1ccccc1 | -13 | 0% | 1.3 | -18 | -1
CCOC(=O)C1(CCCc2ccccc2)CCN(C2CCSCC2)CC1 | · | 4% | 2.3 | · | 30*
CC1CCCN(C(=O)CCS(=O)(=O)c2ccc3c(c2)n(C)c(=O)c(=O)n3C)C1 (stereo not given) | -9 | · | 1.1 | · | ·
CCn1c(C)nc2cc(C(=O)N/N=C/c3ccccc3)ccc21 | -2 | -10% | -7.3 | · | 1
CCCCCCOC(=O)C1=C(C)NC(=O)NC1c1ccc2c(c1)OCO2 (stereo not given) | -1 | · | -1.7 | · | ·
(more compounds)
SMILES | Mtb bLac sens | Mtb growth | RecA intein inh | YopH PTP inh | Arbovirus anti | others
O=C(CCSc1ccc(Cl)cc1)NC1CCCC1 | 4 | · | 1.5 | · | ·
COc1cccc(-c2ccc(C#N)c(SCC(=O)NCCc3ccc(Cl)cc3)n2)c1 | 10 | -1% | -2.0 | -31 | 6
COc1ccc(CNC(=O)CNC(=O)c2ccc(C(C)(C)C)cc2)cc1OC | -1 | · | -0.7 | · | ·
O/N=C\c1cccn1-c1nccs1 | -2 | 4% | -0.2 | · | -2
COc1cc(/C=C2/C(=O)NN(c3ccc(Cl)cc3)C2=O)ccc1OC(=O)c1ccco1 | 100 | ? | 10 | -1 | -34
CCC(=O)N(CCc1ccc(S(N)(=O)=O)cc1)C1CC(=O)N(c2ccc(OC)cc2)C1=O (stereo not given) | -1 | -1% | 0.4 | · | 4
C=CCSc1nnc(NC(=O)C2CSC3(C)CCC(=O)N23)s1 (stereo not given) | -9 | · | -0.2 | · | ·
CCOc1ccc2ccccc2c1/C=N/NC(=O)c1c(C)cc(C)[nH]c1=O | -16 | · | -0.4 | · | ·
CCOC(=O)c1ccccc1NC(=O)CSc1cccc[n+]1[O-] | -4 | -13% | 2.6 | -141 | 4
CCN1C(=O)/C(=C2/Sc3ccccc3N2CCCS(=O)(=O)O)SC1=S | -2 | 3% | -9.8&-7.8 | -15 | 4&6
Cc1csc2nc3ccccc3c(=O)n12 | -5 | · | -0.8 | 41 | -9
Cc1sc2ncn(CC(=O)NCCN(C)C)c(=O)c2c1S(=O)(=O)N1CCC(C)CC1 | 3 | · | 0.7 | · | ·
CCN1CCN(C(=O)/C=C/c2ccc(C(C)C)cc2)CC1 | -8 | · | 0.1 | · | ·

Not all compounds are listed; count on the stated rates, not on these rows.
